Source: PubChem BioAssay (several laboratories)
HIV Env fusion: blocks HIV Env-driven cell-cell fusion; HeLa-JRFL Env/CEM21 cell fusion, luciferase; inhibition, % at 12.3 µM; 1.1% of 360,000 active; AID 651610;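 active = mean replicate inhibition score of at least 50 and every replicate individually at or above 50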;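 note: 0% = plate neutral controls and 100% = maraviroc near 300 nM; one replicate is shown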
Rce1 inh: blocks yeast Ras-converting enzyme; AID 2563; yeast membranes, quenched prenylated peptide cleavage fluorescence; calls only; 0.27% of 290,000 active;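 active = fall in fluorescence gain of 50% or more versus controls, with final raw signal at or below 3038400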;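 note: plate controls were neutral control wells for no effect and wells lacking membranes for full effect; tested at 10 µM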
eIF4H FP inh: inhibitors of RNA binding by human eIF4H; inhibition, % at 35 µM; eIF4H fluorescence polarization binding assay; Q15056; 0.94% of 290,000 active; AID 2012;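 active = 50% or more with normal probe brightness, or confirmed in later tests; about a fifth of its hits are not listed in these tables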;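 note: calls also rest on retests at 20 µM and on dose response follow-up; 0% = protein and probe with vehicle and 100% = probe without protein; strong numbers were not always called active; many hits fall short of the cut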
CSC inhib: cancer stem cell inhibition | inhibition, % at 7.5 µM | cancer stem cell-like cells viability, luminescence | 1.1% of 300,000 active | AID 2717;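 active = mean at 75% or more and at least half the replicates too; tested in HMLE shEcad cells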;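 note: 0% = median of negative and 100% = median of positive control wells; the first replicate is given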
PABP FP inh: PABP-poly(A) binding inhibition; AID 2014; PABP-poly(A) RNA binding, fluorescence polarization; inhibition, % at 35 µM; 1% of 290,000 active;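 active = 50% or more with normal probe brightness, or confirmed in later tests; about a fifth of its hits are not listed in these tables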;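 note: calls also rest on retests at 20 µM and on dose response follow-up; controls were probe without protein and protein plus probe with vehicle; some compounds called inactive have numbers as strong as hits; many hits fall short of the cut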
Target sequence (P11940 whole entry, looked up): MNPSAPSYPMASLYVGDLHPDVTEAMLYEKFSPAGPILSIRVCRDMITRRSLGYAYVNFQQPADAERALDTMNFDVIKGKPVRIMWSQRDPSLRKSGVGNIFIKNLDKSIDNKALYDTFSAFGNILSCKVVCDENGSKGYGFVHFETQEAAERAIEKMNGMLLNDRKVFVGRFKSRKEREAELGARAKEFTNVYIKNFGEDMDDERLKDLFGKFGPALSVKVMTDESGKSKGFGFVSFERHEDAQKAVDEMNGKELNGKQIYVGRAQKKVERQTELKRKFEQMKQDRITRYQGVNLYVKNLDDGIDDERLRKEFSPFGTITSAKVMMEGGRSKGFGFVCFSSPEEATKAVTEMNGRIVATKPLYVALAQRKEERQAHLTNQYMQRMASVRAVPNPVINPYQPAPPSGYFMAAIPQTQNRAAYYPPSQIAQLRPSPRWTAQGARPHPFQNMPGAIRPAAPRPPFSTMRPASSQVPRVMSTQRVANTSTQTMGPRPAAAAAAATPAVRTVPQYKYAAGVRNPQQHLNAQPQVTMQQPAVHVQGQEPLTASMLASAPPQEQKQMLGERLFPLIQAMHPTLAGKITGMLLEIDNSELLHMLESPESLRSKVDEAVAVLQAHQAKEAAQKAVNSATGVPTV
MT1-MMP act inh: inhibitors of human MT1-MMP activation; P50281; HT1080 RFP-PRO-GFP cells, GFP/RFP ratio fluorescence, overnight; percent of plate control window, DMSO zero; GFP/RFP ratio change, % at 20 µM; 0.061% of 360,000 active;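 active = GFP/RFP ratio change of at least 30% with cell ATP level not reduced by more than half and red fluorescence within 50% of control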; note: strong numbers were not always called active
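Material – HT1080 RFP-PRO-GFP cells · Control set – DMSO wells and RFP-L50D-GFP cells · Incubation – overnight cell settling, then overnight compound exposure, 37 °C, 5% CO2 · Compound dosing – single-point 20 µM compound, 1% DMSO · Read-out – GFP/RFP fluorescence ratio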
Yeast UUG start: yeast start codon fidelity modulation. S. cerevisiae UUG-firefly luciferase reporter, luminescence/redox ratio. activity score, % at 18.7 µM. 0.13% of 350,000 active. AID 602363;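 active = replicate mean at a twofold rise or more, about +100% in these data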;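 note: firefly luciferase made from a UUG start codon reports start codon fidelity; reporter light over untreated wells divided by growth signal over untreated wells; some hits fall short of that in this replicate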
eIF4H FP inh retest: recorded beside eIF4H FP inh, whose call it bears; inhibition, %; compound at 20 µM; confirmation average;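 mean of two retest wells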
PABP FP inh retest: recorded beside PABP FP inh, whose call it bears; inhibition, %; compound at 20 µM; confirmation repeats;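 mean of two retest wells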
MT1-MMP act inh RFP: second read-out of MT1-MMP act inh, no call of its own (marks repeat the call); RFP signal change, %; measured here: RFP expression control read;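 0 = vehicle wells; hits needed this value within 50% of zero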
* marks the source's active call; other numbers are inactive results; i = inactive; nt = not tested or not shown. This is a subset; rates above refer to the full screens.

SMILES	HIV Env fusion	Rce1 inh	eIF4H FP inh	CSC inhib	PABP FP inh	MT1-MMP act inh	MT1-MMP act inh RFP	Yeast UUG start	others
N#Cc1c(N(CCO)CCO)nc(N)c2c(N)nc3c(c12)CC(=O)N3CC1CCCO1 (stereo not given)	17.4	i	24.4	-3.1	26.8	-1.9	-0.5	nt
CCOC(=O)C1=C(CSc2nc(C)cc(C)c2C#N)OC(N)=C(C#N)C1c1ccccc1 (stereo not given)	nt	i	5.0	-0.1	-4.4	-74.4	1.4	nt
COC(=O)c1ccc(CNC(=O)CC[C@H]2O[C@@H](n3cc(C)c(=O)[nH]c3=O)C[C@@H]2O)cc1	20.0	nt	nt	nt	nt	2.1	-0.1	-15.3
CCc1cc(C(=O)N2CCOCC2)c(NC2=NS(=O)(=O)c3ccccc32)s1	nt	i	33.9	8.8	51.5	2.2	6.9	-1.9	eIF4H FP inh retest=16.1;PABP FP inh retest=5.0
COc1ccccc1CN1CCNC(=O)C1CC(=O)O (stereo not given)	11.2	i	-6.2	-11.3	2.3	-0.5	4.6	nt
CCCC1=C(C(=O)OCC)C(/C=C/c2ccccc2)n2ncnc2N1 (stereo not given)	nt	nt	4.6	-4.8	-6.4	-13.7	-16.0	-12.0
CC(C)(C)c1ccc(S(=O)(=O)NNC(=O)c2cc3ccccc3[nH]2)cc1	-9.0	i	11.6	-0.3	5.1	-1.1	-5.6	-10.7
Cc1ccc(C2C(C#N)=C(N)OC3=C2C(=O)CC(C)(C)C3)s1 (stereo not given)	-85.6	i	-6.7	-5.5	6.3	-4.1	-1.6	-2.9
CC(=O)N1CCN(c2nc(N)c(C#N)c(CC#N)c2C#N)CC1	-17.8	i	-3.6	-6.0	-1.6	-2.7	7.1	nt
Cc1cc(NCc2ccco2)n2ncnc2n1	-22.0	i	-6.8	-12.7	0.7	-8.0	-1.7	nt
O=C(COC(=O)Cc1c(Cl)cccc1Cl)NCC1CCCO1 (stereo not given)	-0.4	i	-2.7	-12.5	-13.5	-3.2	4.0	-7.5
Cc1nc2c(c(=O)c3ccccc3n2C)c(=O)n1-c1ccc(F)cc1	-2.6	i	-5.2	-8.4	6.1	1.7	0.4	nt
Cc1ccccc1OCC(=O)NCC(=O)OCC(=O)c1ccc2ccccc2c1	-46.0	i	7.3	-11.3	-16.4	4.6	6.0	-19.0
COc1ccc(NC(=O)C(C)Sc2ccccc2)cc1 (stereo not given)	nt	i	-9.3	-5.6	18.5	-1.8	0.0	-15.3
Cc1cccc(OCC(=O)Nc2nnc(S(=O)(=O)N3CCCCC3)s2)c1	nt	i	10.2	6.8	9.7	-0.3	0.7	-19.1
COc1cc(C(F)(F)F)ccc1C(=O)NCCc1ccco1	7.8	i	0.1	-0.4	-10.5	-0.8	0.8	-6.4
O=c1cnnc(SCc2ccc([N+](=O)[O-])cc2)[nH]1	-26.7	i	-6.7	-0.5	7.6	1.7	5.1	nt
COC(=O)c1c(NC(=O)c2ccccc2N(C)S(=O)(=O)c2ccccc2)sc2c1CCCC2	nt	i	-12.0	nt	-28.5	-9.2	-16.0	nt
c1cncc(CSc2ccc(-c3ccc4c(c3)OCO4)nn2)c1	12.0	i	-7.1	40.3	9.7	3.2	-4.4	-26.6
CCOC(=O)Cc1c(C)nc2c(-c3ccccc3)c(C)nn2c1C	-71.7	i	2.7	-10.3	0.4	-2.7	-1.0	-3.4

Pulled one by one from the entries so far:
SMILES	HIV Env fusion	Rce1 inh	eIF4H FP inh	CSC inhib	PABP FP inh	MT1-MMP act inh	MT1-MMP act inh RFP	Yeast UUG start	others
c1cncc(CSc2ccc(-c3ccc4c(c3)OCO4)nn2)c1	12.0	i	-7.1	40.3	9.7	3.2	-4.4	-26.6
Cc1nc2c(c(=O)c3ccccc3n2C)c(=O)n1-c1ccc(F)cc1	-2.6	i	-5.2	-8.4	6.1	1.7	0.4	nt
O=c1cnnc(SCc2ccc([N+](=O)[O-])cc2)[nH]1	-26.7	i	-6.7	-0.5	7.6	1.7	5.1	nt
Cc1cccc(OCC(=O)Nc2nnc(S(=O)(=O)N3CCCCC3)s2)c1	nt	i	10.2	6.8	9.7	-0.3	0.7	-19.1
Cc1ccccc1OCC(=O)NCC(=O)OCC(=O)c1ccc2ccccc2c1	-46.0	i	7.3	-11.3	-16.4	4.6	6.0	-19.0
COC(=O)c1c(NC(=O)c2ccccc2N(C)S(=O)(=O)c2ccccc2)sc2c1CCCC2	nt	i	-12.0	nt	-28.5	-9.2	-16.0	nt

Later entries
SMILES	HIV Env fusion	Rce1 inh	eIF4H FP inh	CSC inhib	PABP FP inh	MT1-MMP act inh	MT1-MMP act inh RFP	Yeast UUG start	others
CCc1cccc(NC(=O)C2CCCN2C(=O)Nc2ccc(C)cc2)c1 (stereo not given)	-28.2	i	-7.1	-4.8	4.3	0.0	0.0	nt
COc1ccc(S(=O)(=O)NCCS(=O)(=O)N2CCN(c3ccccc3)CC2)cc1	nt	i	nt	-3.7	nt	7.7	0.4	-4.7
Cc1ccc(S(=O)(=O)N2CCN3CCCC3C2)cc1 (stereo not given)	-4.4	i	-0.3	1.4	7.3	-3.0	1.1	-3.1
O=C(CSc1nnc(-c2ccc(C(F)(F)F)cn2)o1)Nc1ccccc1Cl	-21.0	i	5.8	-11.9	-12.9	4.1	-0.3	-20.3
COc1cccc(C2(c3cccc(OC)c3)CC2C(=O)Nc2ccccc2Cl)c1 (stereo not given)	nt	i	-5.4	-5.7	2.1	-6.8	-7.9	-10.1
CN1CCN(c2ccc(NC(=O)C(C)(c3ccccc3)c3ccccc3)cc2)CC1	1.5	i	6.7	60.5	-7.7	-1.8	-0.8	-6.5
CCCCCC(=O)N(CN1C(=O)CCC1=O)c1ccccc1	-7.3	i	0.9	-1.9	-8.5	-4.6	-1.4	9.3
O=C1C2C(C(=O)N1CC1CCCO1)C1C=CC2C12CC2 (stereo not given)	nt	i	-7.8	1.9	2.8	3.2	6.4	-10.9
O=C(NNC(=O)C1CCN(S(=O)(=O)c2c(Cl)cccc2Cl)CC1)c1ccccc1O	-8.9	i	nt	-5.7	nt	3.8	-3.0	-13.7
Cc1cc(C(=O)CSc2nn3c(=O)c(C(C)(C)C)nnc3s2)c(C)n1C1CC1	3.0	i	25.2	-6.5	13.8	-4.6	-0.2	nt
COCCN1Cc2cc3cc(C)ccc3nc2SC1=Nc1ccc(OC)cc1	18.2	i	8.5	19.0	13.3	-4.4	-4.0	nt
Cc1[nH]cnc1CSCCN	nt	i	-8.6	-6.6	12.0	-1.3	4.9	-9.1
CC1(C)Cc2nc3sc4c(=O)[nH]cnc4c3cc2CS1	nt	i	3.1	nt	-2.0	3.7	4.5	-23.6
Cc1cc(S(=O)(=O)NC2CCCCC2)ccc1OCC(=O)NCc1cccnc1	nt	i	-14.3	-8.2	7.1	2.3	3.0	-14.0
CNc1cncc(-c2cccc(OC)c2F)n1	-138.2	nt	nt	nt	nt	-3.4	-2.4	-14.3
CC1=CC(c2ccccc2)n2nc(N3C(=O)CCC3=O)nc2N1 (stereo not given)	nt	i	-7.7	nt	13.2	3.6	2.2	-16.7
O=C(CCCN1C(=O)[C@H]2CC=CC[C@H]2C1=O)NCc1nc(-c2ccc(Cl)cc2)no1	-0.3	i	-8.2	-23.0	-4.5	1.2	6.7	-7.5
COc1ccccc1NC(=O)c1oc2ccc(C)cc2c1C	nt	i	3.1	49.6	5.7	-0.1	2.5	4.0
Cc1ccc(S(=O)(=O)N2CCCCC2)cc1C(=O)NCc1ccccn1	-1.5	nt	-5.6	-7.9	2.4	4.5	1.6	-30.7
O=C(C(=O)N1CCCC1)c1c(-c2ccccc2)[nH]c2ccccc12	3.0	i	1.9	-7.8	7.1	3.5	6.1	-18.3
Cc1ccc(NC2=NCC(=O)N2Cc2cccs2)cc1C	3.9	i	-12.9	-4.4	-7.3	-0.6	0.1	nt
CCN1C/C(=C/c2cccs2)c2nc3ccccc3c(C(=O)O)c2C1	-2.4	i	61.6*	-4.0	72.3*	-13.2	7.3	-5.3
COc1ccc([N+](=O)[O-])cc1NC(=O)N(C)Cc1ccco1	-6.2	i	2.2	10.4	7.5	2.2	3.5	-11.7
CCCCCOc1ccc(Br)cc1CSC(=N)N	15.5	i	-17.9	nt	-10.6	-27.6	-25.4	nt
CCN(C(=O)CN1C(=O)NC2(CCCC2)C1=O)c1nc2c(C)cccc2s1	19.2	nt	nt	nt	nt	2.1	0.5	-9.4
O=C(NCc1cccc(Cl)c1)c1ccc(CS(=O)Cc2ccccc2Cl)o1 (stereo not given)	6.6	i	0.0	3.5	-1.7	4.2	-4.3	-12.1
CSc1c(-c2ccccc2)nc2ccccc2c1C(=O)O	11.2	i	-3.3	-18.3	1.8	-1.4	1.3	-20.4
O=C(O)CC(NS(=O)(=O)c1cccc2nsnc12)c1ccc(F)cc1 (stereo not given)	nt	i	1.3	-1.6	3.7	-1.2	2.8	-7.2
CN(C)CCCNC1CS(=O)(=O)CC1O (stereo not given)	nt	i	-10.3	-18.1	-2.3	6.3	4.9	-13.5
Cc1ccc(S(=O)(=O)NNC(=O)CCC(=O)Nc2ccccc2Cl)cc1	-5.7	i	-11.1	6.8	-7.0	-2.1	-4.7	2.9
COc1ccc(CCNC(=O)CN2CCN(c3cccc(C(F)(F)F)c3)CC2)cc1	22.2	i	-3.4	12.6	-0.6	-23.1	-33.2	5.4
CCOc1ccccc1NCN1C(=O)c2ccccc2C1=O	1.6	nt	nt	nt	nt	-3.1	1.2	-9.8
CC(=O)Nc1ccc(S(=O)(=O)Nc2nc(C)nc3sc4c(c23)CCC4)cc1	8.5	i	-6.4	-1.4	-0.5	1.4	6.3	0.9
O=C(C[n+]1ccccc1)c1ccc(NC(=O)c2ccccc2)cc1	-33.2	i	-4.9	6.5	71.8*	-2.5	1.9	-7.0
CC(C)Nc1nc(Cl)nc(N(C#N)CN2C(=O)c3ccccc3S2(=O)=O)n1	-1.8	i	-5.7	0.2	10.6	1.9	3.8	-13.8
Cc1ccc(C)c(NC(=S)N2CCC(C(=O)c3ccc(F)cc3)CC2)c1	-16.4	nt	nt	nt	nt	1.9	1.2	-17.5
COc1ccc(N(CC(=O)N2CCCC(C)C2)S(=O)(=O)c2c(C)nn(C)c2C)cc1 (stereo not given)	-18.0	i	4.3	-5.4	-4.2	3.1	1.2	2.1
O=C(Cc1cccc2ccccc12)NC(NC(=S)Nc1ccccc1Cl)C(Cl)(Cl)Cl (stereo not given)	29.3	i	-7.1	4.2	-9.8	-9.7	-11.3	-11.0
Cc1cc(=O)n(C)c(=O)n1CCCCCN1CCCC1	nt	i	7.3	-1.6	0.2	-1.3	-0.3	-9.1
CCN(CC)C(=O)CSc1ncnc2c(-c3cccs3)nsc12	-80.6	nt	13.8	nt	11.9	-21.9	-8.0	0.0
CN=c1scc(-c2ccco2)n1/N=C/c1ccc(O)c(O)c1	-126.4	i	-4.5	nt	32.4	-13.1	-23.7	nt
O=C(CCN1CCCO1)N1CCCC(N2CCN(c3cccc(C(F)(F)F)c3)CC2)C1 (stereo not given)	7.4	i	-5.4	-5.5	-17.5	-0.1	1.8	0.9
O=C(CSc1ccc2nnc(-c3ccncc3)n2n1)Nc1ccc2c(c1)OCCO2	2.8	i	-0.1	-0.2	-1.7	-3.4	6.7	-40.6
CN(Cc1ccccc1)S(=O)(=O)c1csc(C(N)=O)c1	-0.1	i	-8.9	-14.0	-8.6	-1.3	-4.3	-20.6
COCCCNC(=O)CNC(=S)N(Cc1cc(OC)c(OC)c(OC)c1)C1CCCC1	-96.4	i	-2.6	-7.2	2.0	-1.2	3.2	5.4
COc1ccc2[nH]c(=O)c(CN(C(=O)c3cccnc3)c3ccccc3C)cc2c1	16.7	i	-2.8	-13.8	5.8	0.2	2.5	-9.3
